VDR inhibitor: Inhibitors of the vitamin D receptor (VDR): qHTS | Vitamin D3 receptor (Homo sapiens), P11473 | VDR-SRC2-3 peptide fluorescence polarization, 2 h | Potency, µM, for the others: max response, negative = inhibition, most hits filed as inhibitors | actives 0.93% (n = 400,000); active = well fitted inhibition curve with a large enough effect; inconclusive = small, poorly fitted or top-dose-only effect, or another doubt; inactive = no such curve, though single readings can be large or run the other way; also: series mostly up to about 120 µM
Target sequence (P11473 whole entry, looked up): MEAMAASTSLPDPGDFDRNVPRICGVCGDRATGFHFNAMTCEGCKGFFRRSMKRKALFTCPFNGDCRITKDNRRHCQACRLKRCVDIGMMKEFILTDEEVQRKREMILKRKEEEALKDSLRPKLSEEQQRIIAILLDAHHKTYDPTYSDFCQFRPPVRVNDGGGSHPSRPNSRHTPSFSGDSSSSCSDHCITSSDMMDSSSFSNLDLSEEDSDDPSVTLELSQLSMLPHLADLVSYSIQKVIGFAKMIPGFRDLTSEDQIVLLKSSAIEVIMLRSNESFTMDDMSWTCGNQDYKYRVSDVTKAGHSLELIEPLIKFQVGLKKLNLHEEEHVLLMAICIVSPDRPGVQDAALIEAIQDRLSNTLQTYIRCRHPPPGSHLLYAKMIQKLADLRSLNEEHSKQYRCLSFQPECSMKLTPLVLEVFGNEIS
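Fluorescence polarization assay of small-molecule disruption of VDR binding to coregulator peptide SRC2-3. Compounds and controls pin-transferred, then read after 2 h incubation at ambient room temperature.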
* = called active by the depositor; ? = inconclusive; & = joins results of further samples; [ ] = dose if it differs, or a comment. % is scaled to controls: 0 for no effect and ±100 for the full control effect; potency is read from the fitted curve at half-maximal effect. Only part of the results is shown; the hit share may differ from the screen's.

No.	SMILES	VDR inhibitor
1	O=C1CCCN1c1cccc(Br)c1	-16.4%
2	O=C(NCCc1ccccc1)C(=Cc1ccc(C(=O)O)cc1)C(=O)NCCc1ccccc1	0.7%
3	O=C1CC(C2CCCO2)C(=O)N1c1ccccc1 (stereo unspecified)	12.4%
4	CCn1c(COc2ccccc2C)nnc1SCC(=O)CC(=O)Nc1ccccc1	3.2%
5	CC(Oc1ccc(S(=O)(=O)N2CCCC2)cc1[N+](=O)[O-])C(=O)NC1(C#N)CCCCC1 (stereo unspecified)	-10.2%
6	Cc1ccc(Cl)cc1N1CCN(S(=O)(=O)c2ccc3c(c2)NC(=O)C(C)C(=O)N3)CC1 (stereo unspecified)	-4.8%
7	CCCc1nnc(NC(=O)CCC(=O)N2CCN(S(=O)(=O)c3ccc(OC)cc3)CC2)s1	18.0%
8	CCc1nn(CC(=O)N2CCCCCC2)c(=O)c2cc3ccccc3n12	-2.2%
9	Cc1csc2c(N3CCN(C(=O)Nc4ccc(OC(F)(F)F)cc4)CC3)ncnc12	5.8%
10	C#CCN(CC=C)C(=O)CCc1nnc(COc2ccccc2)o1	-6.9%
11	OCCN1CCN(c2ncnc3ccc(Br)cc23)CC1	7.8%
12	CC1(C)Cc2ccccc2C(C(=O)c2ccccc2)=N1	-3.2%
13	CCCCc1cc(=O)oc2cc(OCC(=O)N[C@@H](Cc3ccccc3)C(=O)O)ccc12	-3.2%
14	COCCNC(=O)CN1C(=O)COc2ccc(Cl)cc21	-2.9%
15	CCOC(=O)c1c(C)[nH]c(C)c1S(=O)(=O)NCC(=O)Nc1cc(C)ccc1OC	13.5%
16	Cc1ccnc(NC(=O)CSc2ccccn2)c1	-13.7%
17	O=C(CSc1nnc(-c2ccncc2)n1-c1ccc(F)cc1)NNC(=O)c1cccc(O)c1	-2.1%
18	COc1ccc(/C=C/C(=O)Nc2ccc(Cl)c(Cl)c2)cc1OC	-10.5%
19	O=C(c1cc2c(F)cccc2s1)N1CCCC1	6.1%
20	FC(F)(F)c1cccc(Nc2nc(N3CCOCC3)nc(N3CCOCC3)n2)c1	7.7%
21	CCc1ccc(NC(=O)c2ccc(F)c(S(=O)(=O)N3CCC4(CC3)OCCO4)c2)cc1	6.4%
22	COc1ccccc1CN1CCC2(CC1)CCN(C(=O)c1csnn1)CC2	-0.6%
23	Cc1cnn(-c2ccc3nnc(-c4ccc(Cl)cc4)n3n2)c1	5.2%
24	Clc1ccc(-c2nnc(C3CC3)o2)cc1	-13.9%
25	CC(C)[C@H](NC(=O)c1ccccc1F)C(=O)NC1CCCCC1	-9.5%
26	CCC(Sc1nc(=O)cc(N)n1-c1ccccc1)C(=O)Nc1cc(C)on1 (stereo unspecified)	-4.7%
27	O=C(c1cccc(F)c1)N1CCN(C(=O)c2cc3ncc(Br)cn3n2)CC1	-6.6%
28	Cc1cc(-n2c(=O)c(C#N)cc3c(=O)n4cccc(C)c4nc32)no1	-4.0%
29	COc1ccccc1CNC(=O)CN1C(=O)CCn2nc(-c3ccccc3)cc21	1.2%
30	Clc1ccc(NNc2ccnc3cc(Cl)ccc23)cc1	4.4%
31	O=C(CC(Nc1ccc(F)cc1)C(=O)OCC(=O)c1cccs1)c1ccccc1 (stereo unspecified)	-17.0%
32	COc1ccc(S(=O)(=O)Nc2cc3c4c(c2)CC(=O)N4CCC3)cc1	7.6%
33	CN1C(C(=O)NCc2ccco2)CC2Cn3c(nc4cc(Cl)c(Cl)cc43)C21 (stereo unspecified)	-7.1%
34	Cc1cc(N)n(-c2ccc(C(=O)O)cc2)n1	-5.0%
35	CCOc1ccc(NC(=O)c2ccc(NC(=O)c3cn4c5c(c(N6CCN(C)CC6)c(F)cc5c3=O)OCC4C)cc2)cc1 (stereo unspecified)	-16.9%
36	CNC(=O)c1csc(-c2ccccc2)n1	4.3%
37	CCCNC(=O)c1nn2cc(Br)cnc2c1Cl	3.8%
38	CCNC(=O)c1ccc(OCC(=O)Nc2ccc(F)cc2)c(OC)c1	2.7%
39	CCOC(=O)c1nnn(-c2ccc([N+](=O)[O-])cc2)c1C	-22.4%
40	COCC(=O)NC1CCN(CC(=O)Nc2ccc(OC)cc2[N+](=O)[O-])CC1	-6.8%
41	CC(=O)Nc1ccc2nc(SCCOc3ccccc3)sc2c1	9.1%
42	COc1cccc(C(C(=O)NC2CCCC2)N(C(=O)c2ccco2)c2ccccc2)c1OC (stereo unspecified)	-29.0%
43	CCOc1nc(C)ccc1-c1noc(-c2ccncc2)n1	5.9%
44	O=C(NNc1ccccn1)C(=O)NNS(=O)(=O)c1ccc(Cl)cc1	6.4%
45	CCOc1ccc2nc(SC3CC(=O)N(c4ccccc4)C3=O)sc2c1 (stereo unspecified)	4.2%
46	COc1ccccc1-c1nnc(C2CCN(C(=O)c3ccc(C)cc3)CC2)o1	-20.8%
47	C/C=C(\C=C\[C@@H](C)C/C=C/CC/C=C/C=C\C[C@@H](OC)/C(C)=C\C=C(C)C)CC(=O)O	-11.0%
48	CCOc1ccc(NC(=O)N2CC=C(n3c(=O)[nH]c4ccccc43)CC2)cc1	1.6%
49	COc1cc2cc(CN(C(=O)Nc3ccccc3)C3CCCC3)c(=O)[nH]c2cc1OC	12.0%
50	Cc1cc(NC(=O)CSc2ccc3c(c2)OCCO3)no1	-5.6%
51	C=C(C)C1Cc2c(C)nn(-c3ccccn3)c2C1 (stereo unspecified)	-13.0%
52	CC(=O)C1=C(C)NC(SCC(=O)c2ccc(F)cc2)=C(C#N)C1c1ccco1 (stereo unspecified)	32.5%[activator]
53	CC(C)C(=O)NNC(=O)c1csc(-c2cccs2)n1	9.2%
54	O=C(Nc1cccnc1)c1cccc(S(=O)(=O)N2CCOCC2)c1	-1.0%
55	COc1cc(/C=N/n2cnn(Cc3ccccc3Cl)c2=S)cc(OC)c1OC	?
56	COc1ccc(CC(=O)N[C@@H]2c3ccccc3CC[C@H]2OCc2ccccc2)cc1	3.8%
57	OC(CNCc1cccc(Cl)c1)c1ccccc1 (stereo unspecified)	-17.2%
58	CC(=O)Nc1ccc(NC(=O)Cn2cnc3c(nnn3Cc3ccc(F)cc3)c2=O)cc1	6.6%
59	Cc1cc(C)n(Cc2ccccc2Cl)n1	-6.4%
60	O=C(COC(=O)c1cc(=O)[nH]c(=O)[nH]1)Nc1ccccc1F	-12.7%

Brought forward from above: three compounds, then new ones.
No.	SMILES	VDR inhibitor
58	CC(=O)Nc1ccc(NC(=O)Cn2cnc3c(nnn3Cc3ccc(F)cc3)c2=O)cc1	6.6%
59	Cc1cc(C)n(Cc2ccccc2Cl)n1	-6.4%
60	O=C(COC(=O)c1cc(=O)[nH]c(=O)[nH]1)Nc1ccccc1F	-12.7%
61	CCOC(=O)c1nn(-c2cccc(OC)c2)c2nc(Nc3ccccc3)cc(=O)n12	-23.9%
62	N[C@@H](CCC(=O)N[C@@H](CSN=O)C(=O)NCC(=O)O)C(=O)O	-27.6%
63	CCC(=O)N1c2ccc(S(=O)(=O)CCC(=O)NCc3cccc(OC)c3)cc2CC1C (stereo unspecified)	-6.3%
64	COc1cccc(-c2cc(C(=O)Nc3cnn(Cc4ccc(Cl)cc4Cl)c3)no2)c1	-9.6%
65	CC(=O)Nc1ccc(NC(=O)c2cc(C3CC3)nc3c2cnn3C(C)C)cc1	-15.7%
66	O=c1c(-c2ccc([N+](=O)[O-])cc2)coc2c(O)c(O)ccc12	8.1%
67	Cc1ccc(CNS(=O)(=O)c2c(C)nc3scc(C)n3c2=O)cc1	-4.0%&0.5%
68	Cc1ccc(C(=O)/C=C/NNC(=O)c2ccccc2O)cc1	?
69	CCC(=O)Nc1cc(C(=O)OCC(=O)c2ccccc2)ccc1C	-4.3%
70	O=C(c1ccc2noc(-c3ccccc3)c2c1)N1CCN(c2ccccc2)CC1	-23.1%
71	CCOc1ccc(NC(=O)NCCCN2CCN(c3ccc(F)cc3)CC2)cc1	-8.3%
72	Cc1ccc(/C=C2/N=C(c3ccccc3)NNC2=O)cc1	2.0%
73	CC(C)n1c(SCC(=O)Nc2ccccc2N2CCCCC2)nc2c1c(=O)n(C)c(=O)n2C	-2.1%
74	O=C(CN1CCOc2ccccc21)NCc1ccco1	-6.7%
75	O=C(c1ccc(OCC2CCCO2)cc1)N1CCc2ccccc2C1 (stereo unspecified)	-11.8%
76	Cc1nn(Cc2ccccc2)c(C)c1CNC(=O)CN=C1NS(=O)(=O)c2ccccc21	6.5%
77	O=C(COC(=O)CC1CCCC1)Nc1cc2c(cc1Cl)C(=O)c1ccccc1C2=O	10.6%
78	CC(=O)NCC(=O)OCC(=O)c1ccc(Br)cc1	-16.7%
79	NC(=O)Cc1ccc(C(=O)c2ccccc2F)s1	-5.2%
80	O=C(O)c1c2c(nc3ccccc13)/C(=C/c1ccc(O)cc1)CC2	-7.1%
81	O=C(COc1ccccc1[N+](=O)[O-])NC1CC1	-26.1%
82	COC(=O)/C(=C/c1ccco1)NC(=O)c1ccc(Br)o1	7.8%
83	Cc1occc1-c1nnc(SCCNCCO)o1	-14.2%
84	Cc1ccc(CNC(=O)/C=C/c2ccccc2Cl)cc1	11.6%
85	CC1=NN(c2nc(-c3ccccc3)cs2)C(=O)C1	-3.7%
86	COC(=O)c1cn(NC(=O)Cc2ccccc2OC)c(=O)c2ccccc12	17.9%
87	CCCCc1nc2sc3c(c2c(=O)n1NC(=O)c1ccco1)CC(C)(C)OC3	-5.0%
88	O=[N+]([O-])c1ccc(N=Nc2c(O)[nH]c3ccc(F)cc23)cc1	0.3%
89	CCOC(=O)/C=C1\SCC(=O)N1CC(=O)NC(C)C	-12.0%
90	CCCCC(CC)CNC(=O)CCCCn1c(=O)[nH]c2ccsc2c1=O (stereo unspecified)	-3.4%&-8.9%
91	CCc1ccc(Sc2cc(C(=O)NC(C)CC)c3ccccc3n2)cc1 (stereo unspecified)	4.4%
92	CCCn1cc(S(=O)(=O)c2ccc(CC)cc2)c(=O)c2ccccc21	3.5%
93	Nc1nncn1C(=O)CCCOc1ccccc1	11.7%
94	COc1ccc(/C=N/NC(=O)c2cc3c(ccc4ccccc43)o2)c(OC)c1	1.3%
95	Cc1cccc(NC(=S)N2CCN(Cc3ccccc3)CC2)c1C	-5.3%
96	Cc1ccc(NC(=O)CNc2ccc(N3CCOCC3)cc2)cc1S(=O)(=O)N(C)C	-2.7%
97	FC(F)(F)c1cnc(-c2cnc(-c3ccncc3)nc2)c(Cl)c1	-10.7%
98	Cc1nc2c(ccc3nc(NC(=O)Cc4ccccc4)sc32)s1	-4.5%
99	Cc1ccc(C(CNS(=O)(=O)c2ccc(C)cc2)N2CCN(C)CC2)cc1 (stereo unspecified)	-18.9%
100	CCOC(=O)NN1C(=O)c2ccccc2NC12CCCC2	-16.7%
101	Cc1ccc(S(=O)(=O)N2CCN(C(=O)CN3C(=O)NC(C)(CCC(C)C)C3=O)CC2)c(C)c1 (stereo unspecified)	-3.8%
102	O=c1[nH]c2ccccc2cc1CN(Cc1cccnc1)S(=O)(=O)c1ccc(Cl)cc1	1.2%
103	Cc1cccc(C(=O)NCCNc2nc3cc(C)c(C)cc3cc2C)c1	1.4%
104	COc1ccc(-n2c(SCC(=O)Nc3ccc(C(=O)O)cc3)nnc2-c2cccs2)cc1	-16.4%
105	Cc1c(Cl)cccc1-c1ccc(CNCc2ccccn2)o1	-20.4%
106	O=C(NCc1ccccc1Cl)C1=Cc2cc(Br)ccc2OC1	12.8%
107	CCC(C)(C(=O)NC1CCCC1)N(C(=O)c1ccccn1)c1ccc(C)cc1 (stereo unspecified)	6.2%
108	COc1ccc(OC)c(S(=O)(=O)n2nnc3cc(Cl)ccc32)c1	4.3%
109	COc1ccc(OCC(=O)N2N=C(C(F)F)CC2(O)C(F)F)cc1 (stereo unspecified)	-10.3%
110	COc1ccc(CNC(=O)C2CCN(S(=O)(=O)N3CC(C)CC(C)C3)CC2)cc1 (stereo unspecified)	-12.2%
111	S=c1[nH]nc(-c2ccn[nH]2)n1-c1ccccc1Cl	2.3%
112	O=C1C2=C(Nc3ccccc3SC2c2ccc(C(F)(F)F)cc2)c2ccccc21 (stereo unspecified)	-11.0%
113	COc1ccccc1C(=O)Nc1ccc(OCc2nnc3c4ccccc4c(C)nn23)cc1	-18.5%
114	CCn1c2ccccc2c2cc(NC(=O)c3ccc([N+](=O)[O-])cc3)ccc21	3.1%
115	N#Cc1c(-c2ccco2)ccn(Cc2cccc(F)c2)c1=O	-10.7%
116	O=C(CSc1ccc(-c2cccs2)nn1)Nc1ccccc1	-9.6%&6.5%
117	Nc1nc2c(c(=O)[nH]1)N=C(CNc1ccc(C(=O)NC(CCC(=O)O)C(=O)O)cc1)CN2 (stereo unspecified)	-14.9%
118	O=C(NCCc1ccc(Cl)cc1)C1CCC(CNc2nc(=S)[nH]c3ccccc23)CC1 (stereo unspecified)	-23.2%
119	COc1ccc(N2CCN(CC(=O)Nc3ccccc3C(=O)NCc3ccccc3)CC2)cc1	6.6%
120	COc1cc(/C=C/C(=O)OCC(=O)N2CCOCC2)ccc1OCC#N	-26.5%

Next compounds:
No.	SMILES	VDR inhibitor
121	CCn1c(C)c(C)c2cc(C(=O)NCCc3cc(OC)ccc3OC)ccc21	3.7%
122	CCc1nc2ccc(C(=O)NC3CCC(C)CC3)cc2nc1CC (stereo unspecified)	-25.1%
123	CC1=C(C)CC(C(=O)Nc2nc(-c3ccc(F)cc3)c(C)s2)C(C(=O)O)C1 (stereo unspecified)	-1.8%
124	Cc1ccc(-c2noc(COc3ccc4c(c3)OCO4)n2)cc1	15.4%
125	COc1cccc(-c2ccc(NC(=O)C3CCCN(Cc4cnn(C)c4)C3)cc2)c1 (stereo unspecified)	15.5%
126	CN(C)C1=C(Cl)C(=O)N(c2ccc(Cl)c(Cl)c2)C1=O	-28.9%
127	C/C(=N\NC(=O)c1cccc(N/N=C(\C)c2cc(O)ccc2O)c1)c1cc(O)ccc1O	-18.4%

Compound activity as filed in PubChem.
